A1 inh: caspase 3/7 activation in MEF A1-2A-BIM cells, primary screen, A1 inhibitor project, cell-based, luminescence, HTS; Caspase-Glo 3/7 luminescence, 3 h; percent of clofoctol response, vehicle zero; caspase activation, % (concentration not given with the values); actives 0.066% (n = 330,000); AID 2462, 2010;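 active = over half of replicate activation scores above 10%, or exactly half above 10 with the replicate mean above 10; inconclusive = replicate mean below 10 yet half the replicates above 10; inactive = over half of replicates below 10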;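 also: wells of about 30 µL received 50 nL stock; many hits fall short of the cut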
Vif TR-FRET: inhibitors of Vif binding to APOBEC3G peptide, primary screen, biochemical, TR-FRET, GST-Vif 1-94, biotin-A3G peptide, dose response retest (AID 1117319). Virion infectivity factor (Human immunodeficiency virus type 1 group M subtype B (isolate …. TR-FRET GST-Vif / biotin-A3G peptide binding; higher % means a stronger effect; test concentration not given here; strong numbers were not always called active. inhibition, %, or IC50 in µM where a hit was titrated. actives 0.57% (n = 260,000);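 active = above the screen mean plus three standard deviations and confirmed in dose response; inconclusive = results disagree or hit not tested in dose response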;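 also: Vif residues 1-94 fused to GST binding biotinylated APOBEC3G peptide 110-148; 0% = full assay without inhibitor and 100% = GST in place of GST-Vif; retest series ran down from 100 µM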
T cruzi inh: inhibitors of intracellular T. cruzi growth, primary screen, luminescence, NIH3T3 host cells. T. cruzi beta-gal in NIH3T3, 90 h. inhibition, % (concentration not given with the values). actives 1.4% (n = 300,000);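 active = mean inhibition across valid replicates above about 55%, limit read from the data; inconclusive = mean below that limit but half or more replicates reach it; inactive = mean below it, under half of replicates reach it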;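 also: signal also drops with host cell toxicity which is not excluded here; 0% = plate median of DMSO wells and 100% = zero luminescence signal; higher percent means less beta-gal luminescence so fewer parasites; stock transfer was 50 nL into about 50 µL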
Ecoli rRNA inh: reduced GFP signal of wild-type E. coli, primary screen, bacterial rRNA inhibitor project, GFP/RFP fluorescence, OD600, single point; E. coli WT GFP vs humanized-ribosome RFP mutants, 24 h; hits give low values; DMSO median 0, no signal -100; AID 720706, 2013; GFP signal change (wild-type ribosome), % (concentration not given with the values); actives 1.6% (n = 350,000);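 active = significant combined selectivity score with lowered wild-type GFP, culture density cut under 30%, mutant RFP and density less affected; inactive = any of these conditions unmet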; also: one replicate is shown; some compounds called inactive have numbers as strong as hits
RanGTP-Imp inh: inhibitors of RanGTP-importin-beta interaction, primary screen, biochemical, FRET, CFP-Ran, YFP-importin-beta, homogeneous; cell-free CFP-Ran/YFP-importin-beta FRET ratio; AID 2216, 2009; inhibition, % (concentration not given with the values); actives 1.1% (n = 300,000);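 active = most replicates above 15%; inconclusive = exactly half above 15%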;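 also: 0% = DMSO wells and 100% = Ran loaded with GDP instead of GTP; wells of about 40 µL received 100 nL stock; the first replicate is given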
Beta cell apopt: inhibitors of cytokine-induced beta cell apoptosis, primary screen, luminescence | INS-1E cytokine-induced death, ATP luminescence, 48 h; percent of positive-control rescue, neutral wells zero | protection from apoptosis, % (concentration not given with the values) | actives 0.8% (n = 300,000) | AID 435005, 2010;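 active = all replicates at 75% or more, or half of them and the mean; inconclusive = half reach 75% but not the mean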;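 also: 0% = cytokine-treated negative control wells and 100% = positive control rescue; higher means more ATP so stronger rescue from cytokine killing; wells of about 40 µL received 100 nL stock; the first replicate is given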
Calb FLC: C. albicans growth inhibition with fluconazole, primary screen, CaCi-2 strain, Alamar Blue fluorescence | C. albicans CaCi-2 (fluconazole-resistant clinical isolate) + fluconazole, 48 h | growth inhibition, % (no concentration beside the values) | actives 0.57% (n = 300,000);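 active = most replicates above 75%; inconclusive = exactly half above 75%; inactive = most below 75%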;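 also: all wells also contain fluconazole at 8 µg/ml as a sub-toxic cotreatment; 0% = median of DMSO wells and 100% = median of geldanamycin control wells; wells of about 8 µL received 7.5 nL stock; the first replicate is given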
MLL AF4-AF9 inh: inhibitors of AF4 peptide binding to AF9, primary screen, biochemical, AlphaScreen, biotin-AF4 peptide, FLAG-AF9, single point | actives 0.47% (n = 350,000) | inhibition, % at 10 µM;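 active = every replicate reaching a set inhibition limit, whatever the replicate mean, cut at about 25% in these data; inconclusive = mean inhibition reaches that limit but some replicates miss it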;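 also: 0% = plate neutral control median and 100% = total signal loss; the record names both 10 and 1 µM as test concentration; the first replicate is given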
Target sequence (P42568 whole entry, looked up): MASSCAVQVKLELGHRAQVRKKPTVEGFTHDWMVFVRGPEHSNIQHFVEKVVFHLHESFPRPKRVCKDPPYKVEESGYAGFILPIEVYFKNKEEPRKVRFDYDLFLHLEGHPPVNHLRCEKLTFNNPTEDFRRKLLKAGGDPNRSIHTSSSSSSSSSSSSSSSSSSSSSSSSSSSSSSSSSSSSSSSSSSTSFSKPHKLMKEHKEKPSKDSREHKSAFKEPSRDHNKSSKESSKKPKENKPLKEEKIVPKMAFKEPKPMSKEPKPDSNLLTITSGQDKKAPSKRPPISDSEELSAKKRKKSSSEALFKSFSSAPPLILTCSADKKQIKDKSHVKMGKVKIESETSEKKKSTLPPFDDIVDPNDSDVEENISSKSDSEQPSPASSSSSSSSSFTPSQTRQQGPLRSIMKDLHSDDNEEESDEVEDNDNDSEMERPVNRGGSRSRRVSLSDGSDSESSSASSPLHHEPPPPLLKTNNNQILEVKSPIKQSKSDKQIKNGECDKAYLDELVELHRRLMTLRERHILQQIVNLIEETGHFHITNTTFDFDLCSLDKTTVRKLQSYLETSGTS
Ecoli rRNA inh OD600: second read-out of Ecoli rRNA inh, no call of its own (marks repeat the call); OD600 change, %; measured here: OD600 growth;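 optical density of the mix in the first replicate; 0 = DMSO median and -100 = no signal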
Ecoli rRNA inh RFP: also measured in Ecoli rRNA inh; calls as there; RFP signal change, %; measured here: RFP humanized mutant strains;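 first replicate; 0 = DMSO median and -100 = no signal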
* = called active by the depositor; ? = inconclusive; . = no result given; & = joins results of further samples.

SMILES	A1 inh	Vif TR-FRET	T cruzi inh	Ecoli rRNA inh	Ecoli rRNA inh OD600	Ecoli rRNA inh RFP	RanGTP-Imp inh	Beta cell apopt	Calb FLC	MLL AF4-AF9 inh
Cc1cc(C)c(C#N)c(SCCN2CCOCC2)n1	0.4	-3%	3	-1	-2	-3.3	2.5	-9	0	3.7
CCOc1nc(NC2CCCCC2)nc(NC(C)(C)C)n1	-0.5	-6%	44	.	.	.	0.5	13	13	.
C/C(=N\NC(=O)c1c(Cl)c(C)nn1C)c1ccc(NC(=O)COc2ccc(Cl)cc2C)cc1	-0.8	3%	17	.	.	.	7.0	2	8	.
Clc1ccc(Cn2nnc(-c3ccc(N4CCOCC4)cc3)n2)cc1	0.3	1%	30	.	.	.	0.2	-3	3	.
Cn1nc(C(C)(C)C)cc1C(=O)Nc1nc2c(s1)C(=O)CC(C)(C)C2	-0.4	-4%	-13	.	.	.	-1.9	-6	58	.
COc1ccc(C(=S)N2CCOCC2)cc1OC(=O)c1ccccc1Cl	-0.5	.	6	-13	-11	-1.7	-2.9	-3	-4	9.9
Cc1c(C(=O)O)oc2ccc(S(=O)(=O)N3CCCCC3C(=O)O)cc12 (centres undefined)	0.3	?	-5	6	9	0.1	-0.7	.	-2	2.5
O=C(c1cnc2sccn2c1=O)N1CCc2ccccc2C1	0.6	1%&-6%	-7	.	.	.	-1.8	-1	4	.
O=C(Nc1ccccc1N1CCCC1)c1cccnc1	0.6	-5%	-7	.	.	.	2.8	-3	33	.
CCOC(=O)c1[nH]c(C)c(C(=O)OCC(=O)N2CCc3ccccc32)c1C	-1.8	?	-2	21	20	-2.9	-0.3	6	-7	-1.4
Cc1noc(C)c1COC(=O)c1cccc(S(=O)(=O)N2CCOCC2)c1	-1.1	-2%	-8	-1	8	-1.7	-0.8	1	1	-9.2
Cc1cc(Cl)c2cc3ccccc3cc2n1	0.6	2%	-7	7	10	-0.3	-1.8	.	1	1.2
CCO[C@@H]1OC(C(=O)O)=C[C@H](C2CCCCC2)[C@H]1CCCO	0.4	2%	-8	8	1	15	1.8	-11	6	-4.7
Cc1ccsc1CNC(=O)c1c(-c2ccccc2)noc1C	0.2	0%	2	-8	2	0.1	-0.1	-2	0	-4.0
CCOC(=O)COc1ccc(C2CC(C)=NN2c2ccccc2)cc1 (centres undefined)	0.0	-8%	-6	-13	-12	-1.2	0.7	-2	3	5.5
CCC(=O)NNc1ncnc2ccccc12	0.9	16µM*	-28	9	11	8.7	3.5	1	?	-8.5
O=C(O)C1=C(OCc2ccc(F)c(F)c2)C(=O)NCC1	0.8	12%	1	16	14	1.9	-4.1	2	-5	-1.1
CCOc1ccccc1C(=O)N1CCC(C(=O)c2ccc(F)cc2)CC1	0.5	-2%	-1	.	.	.	-1.4	2	5	.
CC(C)COc1ccc(C(=O)N/C(=C\c2cccc([N+](=O)[O-])c2)C(=O)O)cc1	1.2	-2%	-6	14	6	1.2	7.1	1	1	-11
COC(c1ccc(Cl)cc1)(c1ccc(Cl)cc1)C(Oc1nc(C)cc(C)n1)C(=O)O (centres undefined)	0.0	0%	-10	3	9	0.4	2.3	5	-10	-1.1
O=C(N/N=C/c1c(Cl)cccc1Cl)C(=O)NC1CC1	0.6	.	-10	0	6	-4.3	3.4	-1	-25	-0.7
C=CCCN(Cc1ccccc1)S(=O)(=O)c1ccccc1Br	0.4	31%	-9	.	.	.	1.8	.	1	.
Cc1ccc(NC(=O)C2CCN(c3ncnc4c3nc3n4CCCCC3)CC2)cc1Cl	0.5	.	24	0	10	-0.3	-1.0	-8	-1	-1.5
O=C(Nc1ccc(F)cc1)NC1CCN(Cc2ccccc2)CC1	-0.6	2%	60*	11	9	0.5	0.7	0	-2	0.6
O=C(Nc1ccc(Cc2ccncc2)cc1)c1ccc(S(=O)(=O)N2CCOCC2)cc1	-0.7	-2%	39	-6	-18	-4.6	0.7	17	1	.

More entries.
SMILES	A1 inh	Vif TR-FRET	T cruzi inh	Ecoli rRNA inh	Ecoli rRNA inh OD600	Ecoli rRNA inh RFP	RanGTP-Imp inh	Beta cell apopt	Calb FLC	MLL AF4-AF9 inh
O=C(Nc1cccc(Cl)c1)N1CCSc2cc(Cl)ccc21	-0.9	2%	24	.	.	.	5.7	1	-9	.
COC(=O)c1ccc(NC(=O)C(OC)c2ccccc2)cc1 (centres undefined)	-1.0	-10%	-4	0	-1	9.7	2.8	-2	-1	0.3
C=CCNC(=S)Nc1ccc2nc(C)c(C)nc2c1	-0.4	3%	-11	.	.	.	3.0	0	-7	.
Nc1ccc(Cl)cc1/C(=N/O)c1ccccc1	0.0	-5%	5	.	.	.	0.5	-5	-80	.
O=C(O/N=C/c1cccc([N+](=O)[O-])c1)C1CC1	-1.6	0%	-10	.	.	.	5.9	-2	-3	.
Cc1ccc(S(=O)(=O)NCCC(=O)NNC(=O)C2COc3ccccc3O2)cc1 (centres undefined)	-0.5	1%	1	6	7	0.7	6.1	.	3	-0.6
O=C(NCc1ccc(Cl)cc1)NCC(F)(F)F	-0.6	-1%	-16	.	.	.	?	2	-5	.
CCn1c(C)nc2cc(-c3nnc(-c4c(-c5ccccc5)noc4C)o3)ccc21	-0.4	-3%	31	.	.	.	4.6	113*	15	.
O=C(CSc1nnc(-c2ccc(Cl)cc2Cl)n1C1CCCCC1)N1CCCC1	-0.4	-3%	2	.	.	.	3.5	3	-3	.
CCOC(=O)Cc1csc(NC(=O)CSc2nnnn2-c2ccc(C)cc2C)n1	2.4	.	1	.	.	.	-0.1	-12	2	.
Cc1ccc(C(=O)Nc2cc3c(oc2=O)CCCC3=O)cc1	-0.7	0%	-5	.	.	.	-1.6	-1	6	.
Cc1ccc(S(=O)(=O)N2c3ccccc3NC(=O)C2CC(=O)Nc2ccccc2)cc1 (centres undefined)	0.2	3%	9	.	.	.	-1.5	-2	0	.
COc1ccc(N2C(=O)C3NN=C(C(=O)OCc4ccccc4)C3C2=O)cc1 (centres undefined)	-0.7	.	-15	10	14	2.4	8.9	.	-6	-2.2
COc1ccc(/C=C/C(=O)OCC(=O)Nc2ccc(Cl)cn2)cc1	1.6	1%	10	-2	-5	0.7	-2.1	2	-18	-0.8
O=C(NCc1cccnc1)c1ccc(Cn2c(=S)[nH]c3ccc(Br)cc3c2=O)cc1	-0.7	-5%	12	5	10	0.6	3.0	98*	-4	-0.9
CNc1ccccc1C(C)(C)c1cc(C)[nH]n1	?	6%	2	.	.	.	-1.1	-10	-7	.
Cc1nc2ccccn2c1C(=O)NNC(=O)Nc1ccccc1	-0.1	-9%	-19	2	-3	7.4	4.7	-5	-10	-6.6
Cc1c(C(C)NC(=O)c2cc(COc3cccc4cnccc34)on2)cnn1C (centres undefined)	-0.4	.	9	5	-15	-0.5	0.6	21	4	1.3
Cc1onc(-c2ccccc2Cl)c1-c1nc(-c2ccncc2)no1	-0.8	0%	23	.	.	.	0.2	-7	-6	.
CC(C)CCNC(=O)C(c1ccc(O)cc1)N(Cc1cccs1)C(=O)C1COc2ccccc2O1 (centres undefined)	0.6	11%	64*	-2	-5	1.5	7.5	.	5	0.8
Cc1ccc(C)c(NC(=O)CN(C)C(=O)C2CCN(S(=O)(=O)c3ccc4c(c3)OCCO4)CC2)c1	-0.4	-6%	-5	-2	4	-0.1	.	-1	-3	?
Cn1nnnc1SCc1cccc(CSc2nnnn2C)n1	-0.3	-5%	.	10	6	-3.2	3.4	-6	-12	3.2
COc1ccc(N2CCN(C(=O)CSc3nnc(Cn4nnc5ccccc54)n3C)CC2)cc1	-0.2	4%	-5	.	.	.	2.4	2	3	.
Cc1oc2c(c(C)cc3oc(=O)c(CC(=O)NCC(=O)NCC(=O)O)c(C)c32)c1C	-0.2	.	-4	-3	1	5.8	-0.8	-1	5	0.1
CCC(CC)c1nnc(NC(=O)Oc2ccccc2)s1	0.3	6%	-6	.	.	.	1.8	-2	-11	.

Further entries follow:
SMILES	A1 inh	Vif TR-FRET	T cruzi inh	Ecoli rRNA inh	Ecoli rRNA inh OD600	Ecoli rRNA inh RFP	RanGTP-Imp inh	Beta cell apopt	Calb FLC	MLL AF4-AF9 inh
COc1ccc(C2(C)NC(=O)N(CC(=O)NCc3ccccc3)C2=O)cc1OC (centres undefined)	-0.7	.	-8	8	9	-0.7	1.4	-4	-1	0.3
CCc1ccc(NC2=NCC(=O)N2c2ccc3c(c2)OCCO3)cc1	1.1	10%	-3	4	7	-0.3	-2.8	-4	4	.
COc1ccc(NC(=O)c2cn(-c3ccccc3)nc2SC)cc1	-0.5	-2%	16	5	3	-3.5	0.0	4	-7	1.1
COc1ccc2c(=O)c(C(=O)NCc3ccccc3)c[nH]c2c1	1.1	.	-4	-2	-2	-1.4	5.3	-7	-1	-1.0
CCC(C(=O)c1ccccc1)N(C(=O)c1ccccc1Cl)N1C(=O)C2C3C=CC(C3)C2C1=O (centres undefined)	0.4	5%	3	.	.	.	0.2	-2	8	.
O=C(CN1CCN(S(=O)(=O)c2ccc(F)cc2)CC1)Nc1ccc2c(c1)OCCO2	0.3	-4%	36	.	.	.	-1.0	3	-3	.
COc1ccc(NS(=O)(=O)c2ccc(O)c(C(=O)OCC(=O)NC(C)C3CC4CCC3C4)c2)cc1 (centres undefined)	-0.9	9%	-3	2	1	4.3	10	.	-14	-3.4
NC(=O)COc1ccc(/C=C2\C(=O)ON=C2c2ccccc2)cc1	0.1	.	.	9	5	-1.8	.	-8	.	12
O=C(O)/C=C/C(=O)N1CCN(c2ccc(F)cc2)CC1	-0.2	.	-19	14	-3	0.0	1.7	1	-5	-1.1
COc1ccc(C(=O)NCCCc2nc3ccccc3n2Cc2cc(C)ccc2C)cc1OC	1.3	1%	17	-1	10	9.8	3.8	2	0	2.8
COc1cc(NC(=S)N2CCN(C(c3ccccc3)c3ccccc3)CC2)cc(OC)c1	2.3	11%	14	.	.	.	8.0	-13	7	.
O=c1nc(SCc2ccccc2Cl)nc(-c2ccc(Cl)cc2)[nH]1	0.2	5%	0	.	.	.	-1.0	.	24	-2.5
CCC(=O)Nc1ccc(Nc2nc(Cl)nc(Nc3ccc(NC(=O)CC)cc3)n2)cc1	-0.4	12%	-5	-4	2	-2.3	1.1	-6	-15	0.9
COc1ccc(C(c2c(C)[nH][nH]c2=O)c2c(C)[nH][nH]c2=O)cc1Br	0.1	3%	2	22	28	0.8	-1.1	-7	0	0.3

Source: PubChem BioAssay (several laboratories)

This is a subset; count on the stated rates, not on these rows.
